# D2 agonist: Beta-Arrestin HTS for Positive Allosteric Modulators of the Human D2 Dopamine Receptor: Agonists; D(2) dopamine receptor (Homo sapiens), P14416; DiscoveRx PathHunter D2 beta-arrestin, luminescence, 90 min; 100% = 57 uM dopamine signal; activation, % (concentration not given with the values); 360,000 tested, 0.084% active; AID 624465, 2012; in the data active = activation above about 40%; inconclusive = about 15% to 40%; inactive = below about 15%; further: compound concentration not given in the record; the text of the record calls up to 30% inactive
# Target sequence (P14416 whole entry, looked up): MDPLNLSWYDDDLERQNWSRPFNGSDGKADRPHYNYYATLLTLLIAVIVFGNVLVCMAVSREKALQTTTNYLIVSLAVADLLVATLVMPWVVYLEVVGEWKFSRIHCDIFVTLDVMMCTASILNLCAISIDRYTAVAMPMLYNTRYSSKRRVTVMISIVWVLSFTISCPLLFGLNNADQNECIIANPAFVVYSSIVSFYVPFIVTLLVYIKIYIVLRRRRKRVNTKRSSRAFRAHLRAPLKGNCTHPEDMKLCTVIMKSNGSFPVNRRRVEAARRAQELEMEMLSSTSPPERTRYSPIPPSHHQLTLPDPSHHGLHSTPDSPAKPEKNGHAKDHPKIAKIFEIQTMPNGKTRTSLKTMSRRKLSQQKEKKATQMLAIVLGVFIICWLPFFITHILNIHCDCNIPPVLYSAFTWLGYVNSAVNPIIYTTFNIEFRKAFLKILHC
#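 DiscoveRx PathHunter D2 beta-arrestin cells (2,100/well) attached overnight, then compound-stimulated 90 min at 37 C in HBSS/10 mM HEPES/0.1% Tween-20 buffer; beta-galactosidase complementation read by luminescence after 1 h at ambient temperature. Dopamine 57 uM final (EC100) as control.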
# gsp antagonist: qHTS for Antagonists of gsp, the Etiologic Mutation Responsible for Fibrous Dysplasia/McCune-Albright Syndrome: qHTS; gsp-mutant cells, cAMP HTRF, 30 min; control for the full effect not named in the record; Potency, µM (top dose mostly 76.9 µM), for the others: top-dose activity change, negative = inhibition, usual class: inhibitors; AID 624288, 2012; 340,000 tested, 0.4% active; active = falling curve of any shape with a large fitted effect; inconclusive = falling curve, mostly with a smaller effect; inactive = flat or rising curve; cell line not stated here;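 further: intracellular cAMP measured with PDE inhibitor Ro 20-1724 present during compound exposure; potency means the concentration at half of the fitted maximal effect; on the % scale 0 is the no-effect control and ±100 the full control effect; nearly all actives have a fitted effect of over 65% in size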
#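 G418-selected cells were plated in DMEM/10% FBS for 16-24 h at 37C, then treated with compounds plus the PDE inhibitor […] (300 uM solution added) for 30 min at 37C. Intracellular cAMP was measured by HTRF after 30 min lysis at room temperature.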
# CtBP-E1A blk: qHTS Assay for Inhibitors of the CtBP/E1A Interaction | CtBP / adenovirus E1A interaction (AlphaScreen) | AID 651724, 2012 | 340,000 tested, 0.49% active | activity change, % (test concentration not listed) | AlphaScreen GST-E1A/His-CtBP binding, 1536-well; stronger effect = lower value; control for the full effect not named in the record; in the data active means activity change below about -65%; inconclusive means about -30% to -65%; inactive means above about -30%; further: on the % scale 0 is the no-effect control and ±100 the full control effect; compound concentration not given in the record
#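 Steps: dispense buffer (Tris pH 8.0, NaCl 300 mM, TCEP 1 mM, BSA, Tween 20); add 5X protein mix (GST-E1A, His-CtBP, 125 nM each); pin 23 nL compound; 2 h at 37 °C, dark; add 5X beads (50 ug/mL); 1 h; read.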
# D2 potentiator: Beta-Arrestin HTS for Positive Allosteric Modulators of the Human D2 Dopamine Receptor: Potentiators; 360,000 tested, 0.23% active; DiscoveRx D2 beta-arrestin cells, luminescence, 90 min; 100% = 57 uM dopamine signal; potentiation, % (concentration not given with the values); D(2) dopamine receptor (Homo sapiens), P14416; AID 624464, 2012; active = potentiation of 50% or more; inconclusive = 30% to 50%; inactive = 30% or less;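 further: compound concentration not given in the record; tested on top of an EC20 dose of dopamine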
#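 PathHunter D2 cells, attached overnight at 37 deg C, received compound in DMSO plus dopamine at EC20 (50 nM final) for 90 min at 37 deg C. Beta-arrestin recruitment was read as luminescence after 1 h with detection reagent at ambient temperature.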
# gsp agonist: qHTS for Agonist of gsp, the Etiologic Mutation Responsible for Fibrous Dysplasia/McCune-Albright Syndrome: qHTS; gsp mutant cells, cAMP HTRF, 30 min; control for the full effect not named in the record; Potency, µM (series often up to 76.9 µM), without a hit: at the top dose activation (cAMP increase), most hits filed as activators; 340,000 tested, 0.13% active; active = well fitted activation curve with a large enough effect; inconclusive = small, poorly fitted or top-dose-only effect, or another doubt; inactive = no such curve, though single readings can be large or run the other way; cell line not stated here;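 further: phosphodiesterase inhibitor Ro 20-1724 added with compounds to block cAMP breakdown; potency means the concentration at half of the fitted maximal effect; nearly all actives have a fitted effect of over 60% in size; about a fifth of the inactives were tested at one dose only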
#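 Cells stably selected in G418 were plated at 2000/well, grown 16-24 hr, then given compounds in DMSO with the PDE inhibitor […] (300 uM solution added) for 30 min at 37C; cAMP was read by HTRF.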
# Six1-Eya2 inh: qHTS Assay for Inhibitors of the Six1/Eya2 Interaction | Homeobox protein SIX1 (Homo sapiens) + Protein phosphatase EYA2 (Homo sapiens), … | AlphaScreen GST-Six1/His-Eya2 binding, biochemical; stronger effect = lower value; control for the full effect not named in the record | activity change, % (test concentration not listed) | 360,000 tested, 0.56% active | AID 651725, 2012; in the data active = activity change below about -65%; inconclusive = about -30% to -65%; inactive = above about -30%; further: on the % scale 0 is the no-effect control and ±100 the full control effect; compound concentration not given in the record
#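 AlphaScreen luminescence read after one hour at 37 °C in darkness. Pin-transferred compounds met GST-Six1 and His-Eya2 protein (5X stock 250 nM/500 nM) plus glutathione donor and Ni-chelate acceptor beads (5X, 50 ug/mL).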
# Starred values were filed as active, the others as inactive; ? = inconclusive; . = no result given; [ ] = dose if it differs, or a comment. The order is random; 1.4% or so of the library scored in one or more.
SMILES,D2 agonist,gsp antagonist,CtBP-E1A blk,D2 potentiator,gsp agonist,Six1-Eya2 inh
O=C(NCc1cccc(C(F)(F)F)c1)C1CC(c2c(Cl)cccc2Cl)=NO1 (stereo not drawn),-10.9,13.9%,-8.7,-5.8,23.8%,-24.3
COc1ccccc1-c1cc(C(=O)Nc2cc(C)nn2-c2ccccc2)no1,4.0,4.3%,0.7,-7.6,-3.5%,-0.3
CCCCOc1ccc(C(=O)N2CCCC2C(=O)O)cc1 (stereo not drawn),-2.5,6.4%,3.7,-13.4,0.0%,1.1
COC(=O)C1CN(C(=O)c2ccc(OC(F)F)cc2)c2ccccc2O1 (stereo not drawn),1.6,0.0%,4.0,-6.3,-8.9%[15.4 µM],-4.2
CN1CCCN(C(=O)CNC(=O)c2ccccc2Br)CC1,-1.2,5.9%,-6.3,-4.0,?,3.9
Cc1ccccc1C(=O)c1c[nH]c(C(=O)NCCCn2ccnc2)c1,-1.6,-0.6%,12.6,-58.9,-21.6%,-3.6
Cc1ccc2c(c1)cc(CN(Cc1ccco1)S(=O)(=O)c1ccccc1)c1nnnn12,-2.9,-7.4%,2.7,-15.3,-20.5%,2.5
Cc1ccc(NC(=O)c2cn(-c3cccc(C)n3)cn2)cc1,-0.8,-0.9%,2.2,-7.3,-0.6%,-4.7
COc1cc2[nH]c(=S)n(Cc3cccs3)c(=O)c2cc1OC,-3.3,-0.2%,-8.7,-5.7,0.2%[15.4 µM],-15.8
O=C(COC(=O)c1ccc2c(c1)OCCO2)NC1CCCCC1,0.8,9.1%,19.1,-18.0,-38.9%[inhibitor],3.6
COc1ccc(NC(=O)Cn2c(=O)n(-c3ccc(OC)cc3OC)c(=O)c3c(C)c(C)sc32)cc1,-3.2,-10.2%,2.8,-24.8,11.2%,-10.1
COc1ccc(C2c3ccc(O)cc3Oc3ncn(Cc4ccccc4)c(=N)c32)cc1OC (stereo not drawn),-7.9,-10.2%,0.9,1.0,18.3%,-0.6
Cc1nc2ccc(F)cc2cc1C(=O)NC(C)C,5.0,2.2%,6.0,10.5,14.0%,1.7
Cc1occc1C(=O)N/N=C/c1ccc(Cl)c([N+](=O)[O-])c1,-1.4,1.1%,2.4,-15.3,9.7%,12.2
CCc1ccc(NC(=O)c2cnc3n(c2=O)CCS3)cc1,-2.1,-2.1%,3.0,-2.6,2.4%,-3.1

# An excerpt from above, showing only CtBP-E1A blk and D2 potentiator.
mol,CtBP-E1A blk,D2 potentiator
COc1ccccc1-c1cc(C(=O)Nc2cc(C)nn2-c2ccccc2)no1,0.7,-7.6
CCCCOc1ccc(C(=O)N2CCCC2C(=O)O)cc1 (stereo not drawn),3.7,-13.4
COC(=O)C1CN(C(=O)c2ccc(OC(F)F)cc2)c2ccccc2O1 (stereo not drawn),4.0,-6.3

# Following part:
SMILES,D2 agonist,gsp antagonist,CtBP-E1A blk,D2 potentiator,gsp agonist,Six1-Eya2 inh
COc1cc2[nH]c(=O)n(CCC(=O)N3CCN(Cc4ccccc4)CC3)c(=O)c2cc1OC,-1.9,-8.9%,1.4,-6.2,-15.4%,2.4
Cc1[nH]c(SCC(=O)Nc2cc(C(N)=O)cc(C(N)=O)c2)nc1Cc1ccccc1,4.7,-10.0%,-23.7,0.3,-10.9%,-27.4
O=C(COc1ccc(Cl)cc1)NNC(=O)CSc1nncs1,-0.7,7.6%,0.5,2.5,-1.9%[15.4 µM],1.4
O=c1cc(N2CCOCC2)[nH]c(=O)n1-c1ccc(Br)cc1,-3.5,6.2%,-2.6,-4.8,-7.1%,0.5
C[C@H]1CN([C@@H](C)CO)C(=O)CCCn2cc(nn2)CO[C@@H]1CN(C)S(=O)(=O)c1ccc(Oc2ccccc2)cc1,-2.9,.,0.2,2.6,?,-5.8
CN(C)c1ccc(C(CC(=O)O)NC(=O)c2ccc(Cl)cc2)cc1 (stereo not drawn),-2.9,5.0%[15.4 µM],3.2,-3.5,5.3%,2.1
CCn1c(SCC(=O)NCc2ccc(C)cc2)nnc1-c1ccncc1,-2.1,4.8%,2.5,-5.6,-7.3%,0.1
O=C(Nc1nnc(-c2ccccc2)o1)NC1CCCCC1,0.6,-1.4%,-18.8,7.2,-33.3%[inhibitor],-5.6
O=C(CSc1nnc(-c2ccc(Cl)cc2)n1-c1ccc(Cl)cc1)N/N=C/c1ccccc1C(=O)O,-0.6,4.4%,2.0,-1.8,-5.9%[15.4 µM],2.2
COc1ccc(C2(C(=O)NCCc3ccccc3)CCCC2)cc1OC,5.3,6.0%,-7.3,-13.0,3.8%,0.0
Cc1ccccc1OCc1n[nH]c(=S)n1Cc1ccccc1,-6.2,-2.3%,-1.0,-10.5,31.4%[15.4 µM],2.2
CCN1CCN(c2nc3c(C)cccn3c(=O)c2C=C(C#N)C#N)CC1,-3.9,0.0%,-2.2,-17.7,?,-6.2
CCCc1ncc(CN2CCCC(C(=O)Nc3ccc(-c4cccc(OC)c4)cc3)C2)cn1 (stereo not drawn),-2.3,-0.7%,-25.8,-22.2,?,-3.9
CC(=O)Nc1ccc(C)cc1,-4.3,2.1%,3.0,-4.0,.,-4.1
CCCn1cnc2sc(C(N)=O)c(C)c2c1=O,-1.7,-7.3%,-3.7,1.7,?,-1.7
O=C(C1CSC2(c3ccc(F)cc3)CCC(=O)N12)N1CCCCCC1 (stereo not drawn),0.4,6.0%,14.0,8.4,?,0.6
O=S(=O)(c1cccs1)N1CCN(c2cccc(Cl)c2)CC1,-0.1,2.0%,13.4,0.8,2.3%[15.4 µM],3.0
O=P(c1ccccc1)(c1ccccc1)C(O)c1cccs1 (stereo not drawn),-4.1,.,-8.5,-10.2,?,-11.1
C[C@H](NC(=O)c1[nH]cnc1C(=O)Nc1ccon1)c1ccccc1,3.3,9.6%,-22.0,-2.1,.,-22.6
CC1CCCN(S(=O)(=O)c2coc(C(N)=O)c2)C1 (stereo not drawn),2.1,4.9%,-13.2,-4.7,-62.5%[inhibitor],1.3
CC(C)Cn1c(SCC(=O)N2CCOCC2)nc2ccccc2c1=O,-2.2,0.3%,-12.1,-1.2,8.4%,4.9
CCOC(=O)C1CCN(c2c(NCCCN(C)C3CCCCC3)c(=O)c2=O)CC1,2.8,4.4%,1.9,-1.1,-0.8%,2.4
CCCc1[nH][nH]c(=O)c1C(c1ccc(Cl)cc1)C(C#N)C#N (stereo not drawn),-2.0,-7.6%,7.2,-1.5,-0.5%,0.4
CCOC(=O)c1ccc(Oc2nc(N(C)C)nc(N3CCOCC3)n2)cc1,-6.3,50.1µM*,.,-10.1,26.7%,-4.9
Cc1ccccc1NC(=O)COc1ccc2oc(=O)cc(C)c2c1,4.4,-12.2%,.,-6.8,-2.4%,0.2
O=C(Nc1cccc(O)c1)c1cccc(NC(=O)c2cccs2)c1,-0.4,-22.6%,-21.6,-2.0,-1.0%,-25.2
COc1ccc2c(c1)CC/C2=N\NC(=O)c1ccccc1,1.3,4.4%,6.7,-6.1,-0.4%,-10.6
O=C1C(Cl)=C(NCCCO)C(=O)c2ccccc21,8.4,-23.7%,?,12.5,-24.5%,-19.3
COc1cc(C(=S)N2CCOCC2)cc(OC)c1OC(=O)c1ccc(C)cc1,-5.6,-9.9%,-26.3,-2.4,3.8%,-10.4
CCCOc1ccc(CNCCCOCC)cc1OC,-2.7,9.8%,2.9,-4.1,7.0%[15.4 µM],3.5
COc1ccccc1-c1cc(C(=O)NCc2cccs2)no1,-1.6,-13.5%,7.2,-31.3,-24.6%,21.6
Cc1ccc(NC(=O)Nc2cccc([N+](=O)[O-])c2)nc1,-0.6,.,0.0,2.4,-3.0%[15.4 µM],0.6
COc1ccc(-c2cc3c(=O)n(CC(=O)NCc4ccccc4F)ncn3n2)cc1,0.2,4.2%,-4.3,-4.1,-39.8%[inhibitor],-1.1
COc1cc(/C=C(/C#N)c2nc3ccccc3[nH]2)ccc1OCC(=O)Nc1ccccc1C,-8.3,-1.9%,-8.0,9.1,?,-2.7
Cc1cn(S(=O)(=O)c2ccc(Cl)cc2)c(C)n1,4.4,2.5%,.,-7.5,19.6%,-0.3
CCn1c(=O)c2ccccc2n2c(SCC(=O)N3CCCc4ccccc43)nnc12,0.6,0.6%,5.5,3.8,-71.6%[inhibitor],9.9
N#CCC(=O)Nc1ccc(C(=O)NCCc2c[nH]c3ccccc23)cc1,0.7,8.7%,-0.7,-0.7,3.4%,6.5
CN(CC(=O)N1CCCCCC1)S(=O)(=O)c1ccc(Br)s1,-2.3,7.0%,1.9,-7.9,-15.6%,0.0
CCOC(=O)NCc1ccc(Cl)c(Cl)c1,-1.3,-6.8%,2.5,-13.1,4.6%,3.5
Cc1cc(NC(=O)CCC(=O)N(CC(=O)NC2CCCC2)Cc2ccco2)no1,-3.2,13.4%,-0.9,-2.4,-0.1%,-0.4
CCN1CCc2c(OCC(=O)Nc3cccc(C)c3)cccc2C1=O,-5.3,-30.6%,-3.0,-5.0,-3.3%[15.4 µM],-0.5
CCCCOc1ccc(C(=O)N/C(=C/c2cccc([N+](=O)[O-])c2)C(=O)O)cc1,-0.7,5.6%,-25.6,2.3,-19.9%,-16.9
COc1ccc(C(=O)NC2CCCCC2)cc1OC1CCN(C(C)C)CC1,-2.8,9.6%,3.1,-3.6,2.4%,-0.6
Cc1cc(C)c(C2C3=C(Nc4c2c(C)nn4-c2ccccn2)c2ccccc2C3=O)c(C)c1 (stereo not drawn),-10.9,-6.6%,21.5,-40.0,-4.0%,-3.7
CN(CCc1ccccn1)C(=O)CCC1CCCN(C(=O)c2cscn2)C1 (stereo not drawn),-7.1,0.6%,.,-5.4,-57.5%[inhibitor],15.4
COc1cc(NC(=S)NCc2cccs2)cc(OC)c1,1.9,0.1%,5.8,-13.8,9.3%,-1.3
COc1cc(/C=N/NC(=O)C2CC(=O)N(c3ccc(C)cc3)C2)cc(OC)c1OC (stereo not drawn),-1.7,25.3%,4.5,4.0,0.9%[15.4 µM],-1.5
CCc1nnc(SCC(=O)N2CCCc3ccccc32)nc1CC,-4.4,1.7%,4.7,-3.1,-32.4%[inhibitor],-2.1

# Screens: PubChem, National Center for Advancing Translational Sciences (NCATS)
